TRPML1 blocker: inhibitors of human TRPML1 channel | Q9GZU1 | TRPML1-inducible cells, Ca2+ dye fluorescence, FDSS; hits give low values; inhibition of EC80 agonist-evoked calcium signal | activity change, negative = inhibition, % (concentration not given with the values) | 390,000 compounds, 0.02% hits | AID 624415; in the data active means activity change below about -50%; inconclusive means about -30% to -50%; inactive means above about -30%;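 further: stimulus is agonist 54-4 at its EC80 concentration; on the % scale 0 is the no-effect control and ±100 the full control effect; the text of the record puts the active cut at -80%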
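TRPML1-DL cells, Tet-induced overnight (~16 h, 37 °C) at 1,500 cells/well, were loaded with Ca8 no-wash dye plus quencher for 45-90 min at room temperature. Compounds were pinned during FDSS kinetic reading; agonist 54-4 at EC80 (4 uM final) then added.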
TRPV1 PAM: potentiators of human vanilloid receptor 1 (TRPV1); 320,000 compounds, 0.02% hits; Q8NER1; TRPV1-expressing cells, Fluo-8 calcium influx, capsaicin EC20 potentiation; host cell line not named in the record; control for the full effect not named in the record; potentiation, % at 8.33 µM; active means potentiation above 80%; inconclusive means 30% to 80%; inactive means below 30%; further: 0% is about no effect
Target sequence (Q8NER1 whole entry, looked up): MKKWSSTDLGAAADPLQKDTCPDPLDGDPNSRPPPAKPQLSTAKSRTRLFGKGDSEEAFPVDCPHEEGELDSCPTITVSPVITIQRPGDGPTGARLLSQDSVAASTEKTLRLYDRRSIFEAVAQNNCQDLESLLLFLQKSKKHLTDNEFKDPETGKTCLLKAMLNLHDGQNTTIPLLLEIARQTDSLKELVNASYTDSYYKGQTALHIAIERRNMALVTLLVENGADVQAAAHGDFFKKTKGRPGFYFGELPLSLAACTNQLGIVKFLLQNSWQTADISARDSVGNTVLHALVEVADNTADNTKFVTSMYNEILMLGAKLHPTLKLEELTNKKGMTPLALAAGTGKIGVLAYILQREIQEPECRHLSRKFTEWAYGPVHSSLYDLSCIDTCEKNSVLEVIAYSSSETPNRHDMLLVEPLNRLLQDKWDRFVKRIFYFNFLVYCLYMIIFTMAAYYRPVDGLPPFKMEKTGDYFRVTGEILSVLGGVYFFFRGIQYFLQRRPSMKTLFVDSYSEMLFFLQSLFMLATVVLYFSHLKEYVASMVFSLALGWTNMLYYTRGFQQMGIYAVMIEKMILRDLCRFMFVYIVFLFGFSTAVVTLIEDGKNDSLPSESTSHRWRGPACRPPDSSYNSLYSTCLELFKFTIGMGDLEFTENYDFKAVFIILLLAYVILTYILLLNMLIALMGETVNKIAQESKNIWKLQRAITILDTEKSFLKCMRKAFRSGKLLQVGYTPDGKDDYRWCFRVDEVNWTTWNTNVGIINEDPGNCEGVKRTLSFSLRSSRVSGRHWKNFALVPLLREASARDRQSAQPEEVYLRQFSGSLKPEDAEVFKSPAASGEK
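Cells expressing TRPV1 were dye-loaded with Fluo-8 and read kinetically: 10 s baseline, 3 min after compound (agonist portion), then 2 min after EC20 capsaicin (allosteric enhancer portion). Calcium-bound dye fluorescence at 480/520 nm.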
ClpP mod: qHTS Assay for Activators of ClpP; purified B. subtilis ClpP, FRET peptide cleavage, 20 min; Potency, µM (top dose mostly 57.5 µM), for the others: top-dose activity change, negative = active; 340,000 compounds, 1.9% hits; AID 651965, 2013; active = well fitted falling curve with a large enough effect; inconclusive = small, poorly fitted or top-dose-only effect; inactive = no such curve, though single readings can be large or run the other way; further: potency means the concentration at half of the fitted maximal effect; the source files actives as falling curves though it sought activators and does not explain the sign; nearly all actives have a fitted effect of over 65% in size; many hits overshoot -100%
Target sequence (P80244 whole entry, looked up): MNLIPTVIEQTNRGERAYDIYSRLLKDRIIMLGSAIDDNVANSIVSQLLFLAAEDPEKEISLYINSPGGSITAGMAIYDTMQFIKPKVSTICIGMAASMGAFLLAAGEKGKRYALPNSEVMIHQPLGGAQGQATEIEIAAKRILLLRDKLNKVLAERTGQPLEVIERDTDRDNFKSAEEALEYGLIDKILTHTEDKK
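Buffer: 100 mM Tris/HCl pH8, 100 mM KCl, 0.05% low protease BSA, 2.5% glycerol, 0.01% Tween-20. ClpP 10 microg/mL final; 20 min RT; delta FRET normalized to ADEP and DMSO controls.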
gsp agonist: agonists of gsp mutant (McCune-Albright syndrome); gsp mutant cells, cAMP HTRF, 30 min; control for the full effect not named in the record; Potency, µM (top dose mostly 76.9 µM), for inactives: at the top dose activation (cAMP increase), actives largely listed as activators; 340,000 compounds, 0.13% hits; AID 624287; active = well fitted activation curve with a large enough effect; inconclusive = small, poorly fitted or top-dose-only effect, or another doubt; inactive = no such curve, though single readings can be large or run the other way; cell line not stated here;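 further: phosphodiesterase inhibitor Ro 20-1724 added with compounds to block cAMP breakdown; potency means the concentration at half of the fitted maximal effect; nearly all actives have a fitted effect of over 60% in size; about a fifth of the inactives were tested at one dose only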
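Cells in DMEM/10% FBS with G418 were pretreated with compounds in DMSO plus […] (300 uM stock) for 30 min at 37C. cAMP was measured by HTRF (cAMP-d2 plus anti-cAMP antibody-K) after 30 min at room temperature.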
Menin MLL FP FL: menin-MLL binding inhibition, fluorescein peptide | Fluorescence polarization, fluorescein-MLL peptide displacement from menin | FP activity change, % at 61.4 µM | 290,000 tested, under 10 active; inconclusive = falling polarisation curve, or a change in total fluorescence; inactive = total fluorescence flat and polarisation flat or rising; no compound was filed as active; the % refers to the polarisation; negative = inhibition;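 further: % of control where 0% means no effect; inhibitors lower the polarisation; unlabelled MLL peptide was the positive control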
gsp antagonist: antagonizes gsp, the McCune-Albright syndrome mutation. 340,000 compounds, 0.4% hits. gsp-mutant cells, cAMP HTRF, 30 min; control for the full effect not named in the record. Potency, µM (highest dose often 76.9 µM), for the others: top-dose activity change, negative = inhibition, hits mostly inhibitors; active = falling curve of any shape with a large fitted effect; inconclusive = falling curve, mostly with a smaller effect; inactive = flat or rising curve; cell line not stated here;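 further: intracellular cAMP measured with PDE inhibitor Ro 20-1724 present during compound exposure; potency means the concentration at half of the fitted maximal effect; on the % scale 0 is the no-effect control and ±100 the full control effect; nearly all actives have a fitted effect of over 65% in size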
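HTRF cAMP read-out (cAMP-d2 plus anti-cAMP antibody-K in lysis buffer, 30 min RT). Before lysis, cells are exposed to compounds with […] for 30 min at 37C in DPBS containing Ca/Mg, BSA and Tween 20.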
Sfp PPTase inh: inhibitors of Bacillus subtilis Sfp phosphopantetheinyl transferase. Q9F4F7. Biochemical Sfp PPTase activity, qHTS. Potency, µM, for the others: max response, negative = inhibition, actives largely listed as inhibitors. 310,000 compounds, 3.5% hits. AID 1490; active means well fitted inhibition curve with a large enough effect; inconclusive means small, poorly fitted or top-dose-only effect, or another doubt; inactive means no such curve, though single readings can be large or run the other way;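 further: the enzyme is Sfp with the accession as filed and its product quenches rhodamine fluorescence; potency means the concentration at half of the fitted maximal effect; 0% = enzyme reaction without inhibitor and -100% = no enzyme wells; top concentration of the series not given in the record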
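Buffer: 50 mM Hepes-Na pH 7.6, 10 mM MgCl2, 0.01% Nonidet P-40, 0.01% BSA. Enzyme 15 nM, pre-exposed to compound 15 min; substrates then added and fluorescence change tracked over 30 min.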
Numbers without * were called inactive; u = inconclusive; x = no result given; [ ] = another dose, or the depositor's remark.

SMILES | TRPML1 blocker | TRPV1 PAM | ClpP mod | gsp agonist | Menin MLL FP FL | gsp antagonist | Sfp PPTase inh
CS(=O)(=O)Cc1ccc(C(=O)N(CCc2ccccc2)Cc2ccccc2)cc1 | 4 | -14 | -3.5% | 9% | x | -17% | 4%
Cc1cc(C(=O)OC(C)C(=O)NC2CCCCC2)c(C)o1 (configuration not stated) | 16 | -6 | -1.4% | -49%[inhibitor] | x | -3% | x
COc1cc(/C=N/NC(=O)c2cccc(S(=O)(=O)N3CCOCC3)c2)cc(OC)c1O | -8 | -3 | x | 25% | 0.8 | -1% | -8%
Cc1c(Cl)cccc1NC(=O)c1ncn[nH]1 | x | 0 | 0.0% | 3% | 0.8 | 13% | -12%
C/C=C/C=C/C(=O)[C@@H]1[C@@H]([C@]2(C)OC(=O)C(C)=C2O)[C@H]2/C(=C(O)/C=C/C=C/C)C(=O)[C@]1(C)C(=O)C2(C)O (some centres not stated) | x | u | 0.4% | x | u | -15% | 50µM*
CC(C)n1nnnc1SCC(=O)N1CCOCC1 | 7 | 3 | -0.9% | -39%[inhibitor] | -0.6 | -2% | 22%
Cn1cnnc1SCC(=O)Nc1cccc(S(=O)(=O)N2CCCCCC2)c1 | -6 | -1 | -3.4% | u | 0.5 | 1% | 15%
COc1ccc(C(=O)Cn2c(Br)nc3c2c(=O)n(C)c(=O)n3C)cc1 | 4 | 3 | 4.0% | -2% | 1.3 | 3% | 50µM*
COC(=O)c1cc(S(=O)(=O)NCC2CCN(CCc3ccc(OC)cc3)CC2)c[nH]1 | -7 | 6 | -0.4% | -2% | x | 6% | 2%
CCN(CC)S(=O)(=O)c1ccc(N2CCCC2)c(NC(=O)CC(C)(C)C)c1 | 36 | -10 | x | 28%[15.4 µM] | 0.0 | 2% | -11%
O=C(O)c1ccc(CNC(=O)c2ccc(Br)o2)cc1 | -6 | -1 | -2.3% | -43%[inhibitor] | 3.3 | -13% | 6%
Cc1cc(C(=O)CN2C(=O)C(=O)N(C3CCCC3)C2=O)c(C)n1CCc1ccccc1 | 9 | 5 | -4.9% | 8% | x | 5% | x
Cc1cccc[n+]1CC(=O)N1c2ccccc2Sc2ccccc21 | 17 | -2 | x | 3%[15.4 µM] | -3.4 | 4% | 1%
CCN(c1ccccc1)S(=O)(=O)c1ccc(C(=O)Nc2ccncc2)cc1 | -3 | -12 | -20% | -5%[15.4 µM] | x | -1% | x
COCCOc1nc2ccccc2nc1C | 2 | 4 | -25% | 6% | 2.0 | 8% | -6%
O=C(Nc1ccc(NC(=O)c2ccccc2Cl)nc1)c1ccncc1 | 4 | -5 | -0.9% | 0% | 0.4 | 20% | -5%
O=C(CSc1cccc(C(F)(F)F)c1)NC(=O)NCc1ccco1 | -12 | 7 | -0.1% | -48%[inhibitor] | 3.8 | 9% | -21%
C=CCn1c(C)cc(C(=O)CSc2nnc(NC(C)C)s2)c1C | -5 | 2 | -1.0% | 1% | 5.4 | 0% | 5%
CCCc1ccc(C(=O)COC(=O)CN2C(=O)NC3(CCCCC3C)C2=O)cc1 (configuration not stated) | 5 | -6 | 1.0% | u | x | -4% | x
S=C(NCC1(c2ccccc2)CCCC1)Nc1ccccc1 | -9 | -7 | -0.2% | -1% | -2.2 | -19% | 1%
COc1ccc2sc(NC(C)=O)nc2c1 | -20 | -3 | 0.7% | -1% | -1.3 | 10% | -1%
N#Cc1ccc(OCc2nnc3n2CCCCC3)cc1 | 4 | 22 | -1.0% | u | 5.4 | -4% | 12%
CCOc1ccc2nc(Cl)c(CN(C(=O)c3cnccn3)C3CCCC3)cc2c1 | 4 | 11 | x | 23%[15.4 µM] | -3.0 | -10% | 1%
CC(C)NC(=S)N1CCCN(c2ncccc2[N+](=O)[O-])CC1 | 13 | 5 | 1.5% | -60% | -0.1 | 4% | 5%
c1coc(CNc2nc3ccccc3s2)c1 | 4 | 4 | -0.5% | -31%[15.4 µM] | -1.1 | -25% | -1%
CC(C)(O)C#Cc1ccc(C(=O)N2CCN(c3ccc([N+](=O)[O-])cc3)CC2)cc1 | -22 | -10 | 1.6% | 15% | -0.1 | -5% | -10%
CC(=O)N/C(=C\c1ccccc1)C(=O)OCc1ccc(C)cc1 | -8 | -4 | 1.4% | u | x | -7% | -8%
CCOc1ccccc1C(=O)Nc1ccsc1C(=O)OC | 7 | 0 | -0.3% | 5% | 2.1 | 20% | -4%
CC(=O)OC1C(OC(C)=O)C2C(C)CC3OC(=O)C(C)C3CC2(C)C1OC(C)=O (configuration not stated) | -14 | x | -0.3% | -3% | x | x | x
COc1ccccc1OC(C)C(=O)N(Cc1ccco1)C1CCS(=O)(=O)C1 (configuration not stated) | -3 | -4 | -4.7% | 19% | -1.3 | -1% | 12%
Cc1ccc(/C=N/n2nnnc2N)cc1 | -1 | x | x | 12% | x | 3% | x
CCNC(=O)c1nc[nH]c1C(=O)NCC | 1 | -1 | -0.8% | 16% | 0.8 | 3% | 5%
CC(Sc1nnnn1C)C(=O)Nc1ccc2c(c1)OCCO2 (configuration not stated) | -5 | 4 | 0.2% | -3%[15.4 µM] | -6.7 | 9% | -2%
Cc1ccsc1C(=O)OCC(=O)NC1CC1 | 4 | x | 4.5% | -5%[15.4 µM] | x | 6% | x
O=C(NCc1ccccc1)c1ccc2c(c1)C(=O)N(Cc1cccnc1)C2=O | 8 | 9 | 1.1% | u | x | 0% | 4%
O=S(=O)(NCC1CCCO1)c1ccc(Cl)cc1 (configuration not stated) | x | -6 | -0.9% | -18% | -6.4 | -10% | 10%
c1ccn2c(SCc3ccc4c(c3)OCO4)nnc2c1 | -5 | 4 | -0.9% | -84%[inhibitor] | 4.9 | 1% | 5%
COc1ccc(C(C)=O)cc1CSc1ccc2c(c1)OCCO2 | 8 | 17 | x | 17% | -1.7 | -16% | 7%
Cc1cccc(OCc2nnc(SCC(=O)N(c3ccccc3)C3CCS(=O)(=O)C3)o2)c1 (configuration not stated) | 23 | 15 | -0.5% | 3% | x | -13% | x
Cn1c(N)c(C(=O)c2cc(-c3ccccn3)nc3ccccc23)c(=O)[nH]c1=O | 7 | -9 | 8.4% | -32%[inhibitor] | -0.4 | 1% | 6%
O=c1[nH]c(C2CCN(S(=O)(=O)Cc3ccccc3)CC2)nc2c1nnn2Cc1cccc(Cl)c1 | 8 | 19 | x | -7% | 6.3 | -11% | -9%
O=C(CCN1CCOCC1)c1ccccc1 | -2 | -8 | -0.7% | -5% | 1.1 | 4% | 12%
COC(=O)C1CC1[C@H](NC(=O)c1cccnc1)c1ccccc1 (some centres not stated) | -13 | x | x | x | -3.8 | x | 16%
Cc1cc(=O)[nH]c(SCc2cc(Cl)ccc2OC(F)F)n1 | 3 | 13 | -0.5% | 7% | -0.2 | -35% | 14%
CCC(C)NCCOCCOc1ccc(Br)cc1C (configuration not stated) | 16 | 18 | -2.1% | 4% | 1.1 | 12% | -57%
COc1ccc(/C=N/N2CCN(C3c4ccccc4-c4ccccc43)CC2)cc1O | 2 | 3 | 3.0% | 27% | 5.8 | 12% | -5%
Cc1cc(F)ccc1S(=O)(=O)N1CCCOC1CNC(=O)C(=O)NCc1cccnc1 (configuration not stated) | -19 | 17 | -1.0% | -19% | x | 10% | 19%
Cc1ccc(S(=O)(=O)NC(=NC2CCCCC2)c2ccccc2)cc1 | -6 | 1 | x | 5% | -4.8 | -4% | 5%
Oc1ccc(Cl)cc1C1=NNC(c2ccc(Cl)cc2)C1 (configuration not stated) | 7 | 0 | 0.9% | -57% | 0.6 | -18% | -9%
Cc1ccc(S(=O)(=O)N2[C@@H](c3ccc(Cl)c(Cl)c3)C(C(=O)O)=C[C@H]2CC2CCCC2)cc1 | 33 | x | -2.4% | x | x | -8% | x
C=CCNC(=O)C12CC3(C)CC(C)(CC(C)(C3)C1)C2 | -21 | -10 | -1.2% | -16% | -1.4 | 2% | 0%
Cc1cc(C)n(-c2ccc(C(=O)Oc3ccc4c(c3)OCO4)cc2)n1 | 2 | 9 | -0.2% | 17% | 2.4 | -13% | -16%
O=C(NCCCN1CCCC1)c1ccc2c(c1)N(Cc1ccc(F)cc1)C(=O)c1ccccc1S2=O (configuration not stated) | -10 | -2 | -0.9% | 25% | 0.7 | 14% | -4%
CCOC(=O)c1cnc(N2CCN(C(=O)OCC)CC2)[nH]c1=O | -7 | 25 | x | -3% | 0.7 | -3% | -2%
O=C1NC(=O)/C(=C/c2ccc(-c3cc(C(=O)O)ccc3Cl)o2)S1 | 5 | 3 | -11% | -40%[inhibitor] | 0.1 | -4% | 32µM*
CCOn1c(=O)c[n+]([O-])c2ccccc21 | 37 | 4 | -8.4% | -25% | u | 5% | u
N#CCC(=O)Nc1ccc(C(=O)OCC(=O)N(C2CCCCC2)C2CCCCC2)cc1 | -9 | -3 | -2.2% | u | u | -3% | 11%
O=c1[nH][nH]c(C(F)(F)F)c1C=NCc1ccc(Cl)cc1 | 12 | -4 | 1.3% | -27% | 3.3 | -4% | 10%
CCOC(=O)C(C(=O)NCCCN1CCOCC1)C1CCCCC1 (configuration not stated) | 21 | -6 | 0.0% | 19% | -0.5 | 10% | 7%
CCN(CC)C(=O)C1c2ccccc2Oc2ccccc21 | -17 | 4 | x | 26% | u | -14% | -20%
Cc1nn(-c2ccccc2)c(Oc2ccc(F)cc2)c1/C=N/n1cnnc1 | -9 | -22 | -0.2% | 28% | 2.9 | 4% | 6%
O=C(NCCOc1ccc(Cl)cc1)C1CCCCC1 | 6 | 5 | x | -32% | 0.8 | -2% | 9%
COc1ccccc1CNC(=O)CCCC(=O)n1nc(C)c2ccccc21 | -10 | 2 | -1.7% | -20% | 4.2 | -12% | -8%

From PubChem
